Screening results from PubChem.
quorum sensing: Vibrio cholerae quorum sensing activators, luminescence (AID 686977); V. cholerae quorum sensing reporter, luminescence, 6 h; higher luminescence means a stronger effect; most inactives read 0; one-dose luminescence at 50 µM unless noted; EC50 in µM for titrated hits; 9,400 tested, under 10 active;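 active means light above mean plus 3 SD and confirmed in a dose series; inconclusive means above that limit without a clear retest; inactive means below it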;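 further: raw light counts without normalisation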
* marks the source's active call; other numbers are inactive results; ? = inconclusive; [ ] = remark or other dose. An excerpt, so the mix of outcomes need not match the whole.

A first look:
SMILES	quorum sensing
O=C(Cn1nnc(-c2ccccc2-n2cnnn2)n1)N1CCCCC1	40
CCN(CC)c1c([N+](=O)[O-])ncn1C	0
CCOC(=O)N1CCC(N2CC34C=CC(O3)C(C(=O)Nc3ccc(F)cc3)C4C2=O)CC1 (stereo not drawn)	40
O=C(Cn1c(=O)oc2cc(S(=O)(=O)N3CCCC3)ccc21)N1CCc2ccccc2C1	0
CCn1c(CSc2nc3ccccc3[nH]2)nc2cc(C(=O)O)ccc21	880
CN1CCN(C(=O)c2cc3sccc3n2CC(=O)c2ccccc2)CC1	0
CCC(C)NC(=O)CS(=O)Cc1nc(-c2cccc(OC)c2)oc1C (stereo not drawn)	40

The whole of this part, from the start:
SMILES	quorum sensing
O=C(Cn1nnc(-c2ccccc2-n2cnnn2)n1)N1CCCCC1	40
CCN(CC)c1c([N+](=O)[O-])ncn1C	0
CCOC(=O)N1CCC(N2CC34C=CC(O3)C(C(=O)Nc3ccc(F)cc3)C4C2=O)CC1 (stereo not drawn)	40
O=C(Cn1c(=O)oc2cc(S(=O)(=O)N3CCCC3)ccc21)N1CCc2ccccc2C1	0
CCn1c(CSc2nc3ccccc3[nH]2)nc2cc(C(=O)O)ccc21	880
CN1CCN(C(=O)c2cc3sccc3n2CC(=O)c2ccccc2)CC1	0
CCC(C)NC(=O)CS(=O)Cc1nc(-c2cccc(OC)c2)oc1C (stereo not drawn)	40
O=C(NC1CC1)c1cc2c(s1)-c1ccccc1OC2	40
Cc1ccccc1NC1=NS(=O)(=O)c2ccccc21	0
CCOC(=O)CC(=O)CSc1nc2ccccc2c(=O)n1-c1ccc(C(=O)N2CCOCC2)cc1	0
COc1cc(C)nc(N2CCC(C(N)=O)CC2)n1	40
Cc1cc(C(=O)CSc2nc(N)cc(=O)[nH]2)c(C)n1CCc1ccc(Cl)cc1	0
C=CCn1c(=O)[nH]c2cc(C(=O)N3CCN(c4cccc(Cl)c4)CC3)ccc2c1=O	?
COc1ccc(N2CC(C(=O)NC3CC(C)(C)NC(C)(C)C3)CC2=O)cc1 (stereo not drawn)	0
CO[C@H]1C[C@H](O[C@H]2[C@H](C)[C@@H](O[C@@H]3O[C@H](C)C[C@H](N(C)C)[C@H]3O)[C@@H](C)C[C@@]3(CO3)C(=O)[C@H](C)[C@@H](O)[C@@H](C)[C@@H](C)OC(=O)[C@@H]2C)O[C@@H](C)[C@@H]1O	0[10 µg/mL]
COC(=O)c1sc(Nc2ccccc2)nc1C	0
CCN(CCCNC(=O)Cn1cc2c(n1)CCCC2)c1cccc(C)c1	0
c1ccc(-n2nc3c(ccc4cnnc43)[nH]2)cc1	0
Oc1c(C(c2ccco2)N2CCC3(CC2)OCCO3)sc2ncnn12 (stereo not drawn)	?
Cc1nc(N2CCCC2)c2nnn(Cc3ccccc3Cl)c2n1	0
CC1CCN(CCC(=O)N2CCCc3c2c(=O)oc2ccc(O)cc32)CC1	40
CC(C)(O/N=C(\C(=O)N[C@@H]1C(=O)N2C(C(=O)[O-])=C(C[n+]3ccccc3)CS[C@H]12)c1csc(N)n1)C(=O)O	0[10 µg/mL]
Cn1nnnc1SCc1nnc(-c2ccc(F)cc2)o1	200
CC1(C)Cc2c(c(N3CCOCC3)nc3sc(C(=O)N4CCCCC4)c(N)c23)CO1	40
Cc1onc(-c2c(Cl)cccc2Cl)c1C(=O)N[C@@H]1C(=O)N2[C@@H]1SC(C)(C)[C@@H]2C(=O)O	?
CCOC(=O)c1oc2ccccc2c1NC(=O)c1ccc(Cl)s1	0
O=C(c1ccc(S(=O)(=O)N2CCOCC2)cc1)N1CCc2ccccc2C1	0
CCOC(=O)N1CCN(C(=O)Cn2c(=O)sc3ccccc32)CC1	0
Cc1ccc(S(=O)(=O)N=Nc2c(O)[nH]c3ccccc23)cc1	40
COc1cc2c(cc1OC)C(C(=O)NCCN1CCOCC1)C1c3ccccc3CCN1C2=O (stereo not drawn)	0

4 of these compounds, reformatted:
Cc1onc(-c2c(Cl)cccc2Cl)c1C(=O)N[C@@H]1C(=O)N2[C@@H]1SC(C)(C)[C@@H]2C(=O)O
- quorum sensing = ?

CCOC(=O)c1oc2ccccc2c1NC(=O)c1ccc(Cl)s1
- quorum sensing = 0

O=C(c1ccc(S(=O)(=O)N2CCOCC2)cc1)N1CCc2ccccc2C1
- quorum sensing = 0

CCOC(=O)N1CCN(C(=O)Cn2c(=O)sc3ccccc32)CC1
- quorum sensing = 0

Next part:
SMILES	quorum sensing
O=C1c2ccccc2C(Nc2ccc(S(=O)(=O)N3CCCCC3)cc2)N1Cc1ccco1 (stereo not drawn)	0
CC(=O)N(c1ccc(Br)cc1)C1C=CS(=O)(=O)C1 (stereo not drawn)	0
O=C(c1nn2c(C(F)(F)F)cc(-c3ccco3)nc2c1Br)N1CCCc2ccccc21	0
COCCCNC(=O)c1cc2c(=O)n(C)c3ccccc3c2n1C	0
CCCS(=O)(=O)N1CCN(C(=O)COc2ccc(OC)cc2)CC1	0
CC1(C)S[C@@H]2[C@H](NC(=O)[C@H](N)c3ccccc3)C(=O)N2[C@H]1C(=O)OC1OC(=O)c2ccccc21 (stereo partly drawn)	320[10 µg/mL]
O=C(c1ccco1)N1CCN(C(=O)c2oc(=O)c3ccccc3c2-c2ccccc2)CC1	40
CCN1CCN(CCCNC(=O)Cn2cc3c(n2)CCCC3)CC1	40
COc1ccc(/C=N/n2cnnc2SCc2ccc(OC)cc2)cc1	0
Cc1ccc(NC(=O)N(C2CCCCC2)C(C)c2cccnc2)cc1C (stereo not drawn)	0
COC(=O)C1=C(C)NC(C)=C(C(=O)OCCN(C)Cc2ccccc2)C1c1cccc([N+](=O)[O-])c1 (stereo not drawn)	40[10 µg/mL]
CC(=O)NC(CCS(C)(=O)=O)C(=O)Nc1cccc2ccccc12 (stereo not drawn)	0
COc1ccc(C2C(C(=O)Nc3ccccc3)=C(C)Nc3nc(CCCO)nn32)cc1 (stereo not drawn)	0
CN1CCN(C(=O)c2ccccc2NC(=O)c2cccs2)CC1	40
CC(=O)OC(C(=O)NC1CCCCC1)c1ccc(C)cc1 (stereo not drawn)	0
O=C(Nc1nc2c(s1)CCCC2)C1COc2ccccc2O1 (stereo not drawn)	0
O=C(O)C1CC=CCC1C(=O)Nc1cccc(C(=O)N2CCCCC2)c1 (stereo not drawn)	280
CCP(=O)(CC)C(C)(C)CP(=O)(c1ccccc1)c1ccccc1	40
COc1cc2c3cc1Oc1cc(ccc1O)C[C@@H]1c4c(cc(OC)c(O)c4Oc4cccc(c4)C[C@@H]3N(C)CC2)CC[N+]1(C)C	0[10 µg/mL]
O=C(CSc1ncnc2ccccc12)Nc1ccc(N2CCOCC2)cc1	0
CCOC(=O)/C(C(=O)Nc1ccccc1Cl)=C1/NC(C)(C)Cc2ccccc21	0
CCOC(=O)N1CCN(C(=O)CSc2nnc(-c3cccs3)o2)CC1	40
CCCCCCn1c(-c2ccco2)nc2oc3cc(OC)ccc3c(=O)c2c1=O	?
CC(C)(C)CC(C)(C)c1ccc(OCOCCOCCO)c(Cc2cc(C(C)(C)CC(C)(C)C)cc(Cc3cc(C(C)(C)CC(C)(C)C)ccc3OCOCCOCCO)c2OCOCCOCCO)c1	0[10 µg/mL]
CCN(CC)C(=O)CN(c1ccc(Cl)cc1)S(=O)(=O)c1ccccc1	320
O=C(Nc1ccc(Cc2ccncc2)cc1)C1CCC(N2C(=O)C3C4C=CC(C5CC45)C3C2=O)CC1 (stereo not drawn)	0
CCc1ccc(NC(=O)CSc2nnc(SCC(=O)Nc3ccc(CC)cc3)n2N)cc1	0
CCOC(=O)C1CCCN(c2c(NCCCN(C)c3ccccc3)c(=O)c2=O)C1 (stereo not drawn)	0
COc1ccc(CN2CCNC(=O)C2CC(=O)O)cc1OC (stereo not drawn)	0
O=C(NCCCN1CCOCC1)c1ccc(-n2nc(C(F)(F)F)cc2-c2cccs2)cc1	40
Cc1noc(C)c1CSCC(=O)OCC(=O)NC1CCCCC1	0
Cc1oc(C(=O)O)cc1CSCc1cc(C(=O)O)c(C)o1	0
COCCn1c(SCC(=O)NCc2ccco2)nc2cccnc21	?
COc1ccc(CCn2c(C)c(C(C)=O)c3cc(OC(=O)c4ccco4)ccc32)cc1OC	40
N/C(=N\OC(=O)Nc1ccccc1)c1ncc(C(F)(F)F)cc1Cl	0
CCCCSc1nnc([C@@H]2CCCN2C(=O)OC(C)(C)C)o1	?
COc1ccc2cc(CCNC(=O)c3ccc(Br)o3)c(=O)[nH]c2c1	0
N#CC1C(=O)NC(N2CCN(c3ccccc3)CC2)=NC12CCCCC2 (stereo not drawn)	0
COc1ccc(-c2nnc(SCC(=O)Nc3cccc(Cl)c3)o2)cc1	40
Cc1csc(SCCn2c(N3CCCC3)nc3c2c(=O)[nH]c(=O)n3C)n1	40
O=C(NCc1ccccc1)c1ccc(OC2CSC2)cc1	40
COc1ccc(-c2nc(CS(=O)CC(=O)N3CCCC3)c(C)o2)cc1 (stereo not drawn)	0
O=C(NCc1cccs1)c1cc2c(s1)-c1ccccc1OC2	0
CN(CC(=O)Nc1nccs1)S(=O)(=O)c1ccc(F)cc1	0
Cc1ccc(-n2c(Cc3cccn3C)nnc2SCC(N)=O)cc1	40
Nc1c(C(=O)NC2CCCC2)c2nc3ccccc3nc2n1N	0
O=C(NC1=NCCS1)C1CC2CCC1C2 (stereo not drawn)	0
CSC1=NCCN1C(=O)Cc1ccc(F)cc1	0
CCSC(C)CC1C/C(=N/O)c2c(C)noc2C1 (stereo not drawn)	40
N#Cc1ccccc1Cn1cc(C(=O)c2ccco2)c2ccccc21	0
COc1ccc(OCC(=O)Nc2cccc3cccnc23)cc1	320
COc1ccccc1-n1c(SCC(=O)N2CCc3ccccc32)nc2c(c1=O)SCC2	0
CC[N+](C)(C)c1cccc(O)c1	0[10 µg/mL]
CC(C)[N+](C)(CCC(C(N)=O)(c1ccccc1)c1ccccc1)C(C)C	?
N#CCSc1nc2c(c(=O)n1Cc1ccccc1)C1(CCCC1)Cc1ccccc1-2	280
Cc1cc(=O)oc2cc(OCC3CC(c4ccccc4Cl)=NO3)ccc12 (stereo not drawn)	0
O=C(NC1CCCCCC1)C1C2C=CC3(CN(Cc4cccnc4)C(=O)C13)O2 (stereo not drawn)	0
C/C(=N\NC(=O)C1CC1c1ccccc1)c1cccs1 (stereo not drawn)	40
CN(CC(=O)NCc1ccco1)S(=O)(=O)c1cccc2cccnc12	0
CN1C(=O)CC[C@H]1c1cccnc1	40[10 µg/mL]
Further entries follow.
SMILES	quorum sensing
CCCCOc1ccc(C(=O)Nc2cccc(C)n2)cc1	240
CCOC(=O)C(C)Sc1nc2ccccc2c(=O)n1CC1CCCCC1 (stereo not drawn)	0
O=C(Nc1cccc(O)c1)C1CCCN1C(=O)OCc1ccccc1 (stereo not drawn)	0
CCC(=O)N1CCN=C1SCc1ccccc1	0
O=C(CSc1nnc(Cc2cc(=O)[nH]c(=O)[nH]2)n1-c1ccc(F)cc1)N1CCCCC1	0
CCOC(=O)c1cc2c(s1)-c1c(C)cccc1OC2	0
CN1CCN(c2cc(=O)n(C3CCCCC3)c(=O)[nH]2)CC1	80
CCSc1ccccc1C(=O)NCc1ccc(OC)cc1	0
CC(C)C(=O)Nc1nnc(-c2ccccc2)o1	0
CCCCOc1cc(C(=O)NCCN(CC)CC)c2ccccc2n1	0[10 µg/mL]
CCOC(=O)c1sc(NCc2ccco2)c(-c2nc3ccccc3s2)c1N	0
Cc1ccc(OCc2nc(-c3ccccn3)n[nH]2)cc1	0
CC(C)Cn1c(CN2CCCCC2C)nc2c1c(=O)n(C)c(=O)n2C (stereo not drawn)	0
COc1cccc(C(=O)NC(C)C(c2cccs2)N2CCOCC2)c1 (stereo not drawn)	0
CCOC(=O)CNC(=O)Cn1cnc2c(nnn2-c2ccc(F)cc2)c1=O	0
CC1CCCCC1NC(=O)CN(C)S(=O)(=O)c1cccc2nsnc12 (stereo not drawn)	0
CCc1nc(SCC(=O)N2CCOCC2)c2c(=O)n(C)c(=O)n(C)c2n1	0
Cc1nn(-c2ccccc2)c(C)c1/C=N/NC(=O)c1cc(C2CC2)[nH]n1	0
CSc1nccc(Nc2ccccc2)c1C#N	0
COC(=O)c1ccccc1NC(=O)c1sc(N)nc1C	0
COc1cc(C(=O)OC2C[C@H]3CC[C@@H](C2)N3C)ccc1O (stereo partly drawn)	0[10 µg/mL]
CCCCN(CCCC)CCn1cnc2c([nH]c3ccc(OC)cc32)c1=O	0
C=C[C@]12CN(C)[C@@H]3[C@H]4COC(CC41)[C@]1(C(=O)Nc4ccccc41)[C@@H]32	0[10 µg/mL]
O=C(CSc1ccc2nnc(-c3ccccc3)n2n1)NCc1ccc2c(c1)OCO2	320
NC(=O)N1c2ccccc2C=Cc2ccccc21	0[10 µg/mL]
CN[C@@H]1[C@H](O[C@H]2[C@H](O[C@@H]3[C@@H](O)[C@H](O)[C@@H](N=C(N)N)[C@H](O)[C@H]3N=C(N)N)O[C@@H](C)[C@]2(O)C=O)O[C@@H](CO)[C@H](O)[C@H]1O	0[10 µg/mL]
COc1ccc2c(c1)C(=O)N(CCc1ccc(S(=O)(=O)NC(=O)NC3CCCCC3)cc1)C(=O)C2(C)C	0[10 µg/mL]
CC(C)CCNC(=O)C(c1cccs1)N(CC1CCCO1)C(=O)Cn1nnc2ccccc21 (stereo not drawn)	40
CCOC(=O)Cn1c(=O)oc2cc(S(=O)(=O)Nc3cccc(C)c3)ccc21	40
CC1(C)CC(=O)C2=C(C1)OC(N)=C(C#N)C2c1ccsc1 (stereo not drawn)	40
CN(Cc1ccccc1)C(NC(=O)c1ccccc1)C(Cl)(Cl)Cl (stereo not drawn)	0
CCCCOc1ccc(C(=O)CCN2CCCCC2)cc1	0[10 µg/mL]
CCOC(=O)C1=C(O)/C(=C/N(C)C)N=C1C	0
O=C(CSc1nnc(C2COc3ccccc3O2)o1)N1CCCCC1 (stereo not drawn)	?
CCCOc1cccc(-c2cc(C(=O)NNC(=S)NCC)c3ccccc3n2)c1	40
